Compound activity (PubChem BioAssay)
Ba CapD inh: blocks the Bacillus anthracis CapD enzyme; z-score (concentration not given with the values); AID 492967; purified CapD enzyme, fluorescence intensity read-out; hits give low values; some hits fall short of the stated cut; 140,000 tested, 0.23% active;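 active means z-score under -4 in either of two replicates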;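 further: stock transfer was 100 nL into about 40 µL; score is relative to mean and spread of the plate; one replicate is shown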
AID504770: growth inhibitors of E. coli YBA685 in a screen for V. cholerae RctB (chromosome II replication) inhibitors. E. coli YBA685 rctB-dependent plasmid, OD600 growth, 3 h; hits give low values. z-score (test concentration not listed). 130,000 tested, 0.27% active;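 active means z-score under -2 on both plates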;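 further: wells of about 30 µL received 100 nL stock; score is relative to mean and SD of the test wells; the first replicate is given; strong numbers were not always called active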
An asterisk follows results filed as active; . = no result given; & = joins results of further samples.

SMILES | Ba CapD inh | AID504770
Cc1nnc(N2C(=O)C(O)=C(C(=O)c3cccs3)C2c2ccccc2F)s1 (stereo not drawn) | -0.935 | 0.2
CC(CNC(=O)c1sc2ccccc2c1Cl)NC(=O)c1sc2ccccc2c1Cl (stereo not drawn) | -0.505 | .
O=c1c2oc3ccccc3c2ncn1Cc1ccccc1 | . | 0.7
CN(NC(=O)Cc1ccccc1)c1ccc(Br)cc1 | 0.36 | .
CCOC(=O)C1=C(C)NC2=C(C(=O)c3ccccc32)C1c1ccccc1OCc1cccc(F)c1 (stereo not drawn) | 0.08 | .
Cc1nc2c(ccc3nc(NC(=O)C4CC4)sc32)s1 | 0.095 | 0.9
O=C(Nc1ccccc1)c1ccc2cnccc2n1 | -0.52 | .
CCC(C(=O)N1CCC(C)CC1)c1ccccc1 (stereo not drawn) | -0.07 | -1.1
O=S(=O)(NCCOCCO)c1cc(Cl)ccc1Cl | 0.465 | .
CCOc1cc2c(cc1OCC)C1C(C(=O)NCCCN3CCN(CC)CC3)c3ccccc3C(=O)N1CC2 (stereo not drawn) | -0.025 | -1
COc1ccc(-c2noc(CC(=O)O)c2-c2ccc(OC)cc2)cc1 | 0.12 | 1.15
COc1ccc(/C=C2\C=C(c3ccccc3)N(c3ccc(C(=O)O)cc3)C2=O)cc1Br | -0.895 | .
Cc1ccnc(NC(=O)COc2ccc(Cl)cc2Cl)n1 | . | 0.2
CCOc1ccc2c(c1)sc1c(C)cc(=O)oc12 | -0.265 | 1.6
CCCNc1c(N)n(-c2ccccc2)c(=O)[nH]c1=O | 40.7 | -0.9
Cc1cccc2c1NC(=O)C(c1ccccc1)C2=O (stereo not drawn) | 1.12 | 0.05
Cc1ccc2nc(CCCC(=O)O)[nH]c2c1 | 0.35 | -0.5
CCSc1nnc(NC(=O)CSc2nccn2-c2ccccc2)s1 | -0.27 | -0.55
CCOC(=O)c1nn(-c2ccc(F)cc2)c(=O)c2c(NC(=O)c3cc(OC)c(OC)c(OC)c3)scc12 | -0.305 | 0.9
CCOC(=O)c1sc2nc(CC(=O)OC)nc(Nc3ccc4c(c3)OCCO4)c2c1C | 1.96 | .
CSc1ncc(Cl)c(C(=O)N(Cc2ccccc2)c2ccccn2)n1 | -1.33 | -0.3
Cc1c(C)c(C)c(C(=O)c2cccs2)c(C)c1C | 0.21 | .
Cc1ccccc1C(OCCN(C)C)c1ccccc1 (stereo not drawn) | -0.28&-2.34 | -0.1
COc1ccc(-n2c(SCc3ccc(Br)cc3)nnc2-c2ccco2)cc1 | -0.335 | .
COC(=O)c1sccc1NC(=O)Cn1ncc2c1-c1cc(C)ccc1OC2 | -0.345 | -0.65
O=C1NCCN1Cc1ccccc1 | 0.01 | -0.5
CCOC(=O)N1CCN(C(=O)c2ccc3c(=O)n(-c4ccccc4)c(SCC(=O)c4ccccc4)nc3c2)CC1 | 0.26 | .
O=C(NC1CCCCC1)C1c2cccn2CC(=O)N1CCCN1CCCC1=O (stereo not drawn) | 0.51 | -0.8
CCOC(=O)Oc1cc2oc(=O)sc2cc1Cl | 0.055 | -0.15
COc1ccc(Br)cc1C=C1C(=O)NC(=O)NC1=O | 1.12 | .

3 neighbouring compounds from above, quoted:
SMILES | Ba CapD inh | AID504770
CSc1ncc(Cl)c(C(=O)N(Cc2ccccc2)c2ccccn2)n1 | -1.33 | -0.3
Cc1c(C)c(C)c(C(=O)c2cccs2)c(C)c1C | 0.21 | .
Cc1ccccc1C(OCCN(C)C)c1ccccc1 (stereo not drawn) | -0.28&-2.34 | -0.1

(listing goes on)
SMILES | Ba CapD inh | AID504770
Cn1c(=O)oc2cc(S(=O)(=O)N3CCN(c4ccccc4)CC3)ccc21 | -0.22 | 1.45
COc1ccccc1CNC(=O)c1nnc(Cc2ccc(F)cc2)o1 | -0.79 | -0.8
N#CCC(Cc1ccccc1)c1ccc2c(c1)OCO2 (stereo not drawn) | . | -0.05
O=S(=O)(NCCNc1ccccc1)c1cc(Cl)sc1Cl | -0.45 | .
CN1CCC(NC(=O)c2cc(Br)ccc2Cl)CC1 | 0.83 | -0.7
O=C(c1cccc(COCC(F)(F)C(F)F)c1)N1CCN(c2ccccc2)CC1 | 0.34 | -0.75
Cc1cc(NS(=O)(=O)c2ccc(NC(=S)NCc3ccccc3)cc2)no1 | -0.325 | 0.05
CCOC(=O)c1c(NC(=S)NC(=O)c2ccccc2)sc2c1CC(C)(CC)OC2 (stereo not drawn) | -0.215 | .
O=C(CSc1ccc(F)cc1)N1CCCC1 | 0.68 | -0.2
CCCc1[nH]c(Br)nc1-c1ccccc1 | -0.365 | 1
CCOC(=O)c1ccc(N2CCOCC2)c(N=Cc2cc(Br)ccc2O)c1 | 0.505 | .
COc1ccc(C2CC(=O)C3=C(C2)NC(=O)CC3c2ccc(OC)c(OC)c2)cc1OC (stereo not drawn) | -0.69 | 0
O=C(c1ccc2ccccc2n1)N1CCN(c2ccccc2O)CC1 | -0.025 | -0.5
Cc1cccc(C)c1OCCCCN1CC(C)OC(C)C1 (stereo not drawn) | 0.465 | -0.3
COc1ccc(N(C)C(=O)c2cc3c(=O)oc4ccccc4c3s2)cc1 | 0.3 | .
C#CCN(C)CCCOc1ccc(Cl)cc1Cl | 21.9 | .
Clc1ccc(-c2nnc3sc(-c4ccccc4)nn23)cc1 | -0.065 | .
N#Cc1ccc2snnc2c1 | 0.205 | 1
COc1ccc(/C=N/N=C2\CC(C)(C)Cc3n[nH]c(=O)cc32)cc1OC | -0.33 | 1.85
Cc1ccc(-c2cnc(NC(=O)CCC(=O)N3CCCCC3)n2C)cc1 | . | 0.15
CC(c1ccc(-n2cncn2)cc1)N(C)S(=O)(=O)c1cccc(C#N)c1 (stereo not drawn) | . | 0.2
O=C(O)CCC(=O)N1CCN(C(=O)C2COc3ccccc3O2)CC1 (stereo not drawn) | -0.33 | .
CN(CC(=O)N1CCc2ccccc2C1)S(=O)(=O)c1ccc(Cl)cc1 | 33.7 | 2.4
Cc1cccc(NC(=O)CCN2CCC(C)CC2)c1 | . | -0.65
CCCc1[nH]nc2c1C(CCc1ccccc1)C(C#N)=C(N)O2 (stereo not drawn) | -0.225 | 0.05
Cn1cc(Cl)c(/C=C(\C#N)S(=O)(=O)c2ccccc2)n1 | 0.035 | -0.15
CCc1ccc2[nH]c(=O)c(C(c3nnnn3C3CCCCC3)N3CCCC3)cc2c1 (stereo not drawn) | . | 0.3
COC(=O)c1ccccc1NC(=O)C1=CCCCC1C(=O)O (stereo not drawn) | 67.3 | -0.4
CC1(C)Cc2ccccc2C(Nc2nc(-c3ccccc3)cs2)=N1 | 0.16 | -0.05
Fc1ccc(Oc2cc(N3CCOCC3)nc(-c3ccccc3)n2)c(F)c1 | 1.09 | .
Cc1nc(-c2ccc(S(=O)(=O)N3CCCc4ccccc43)s2)cs1 | -0.21 | 0.55
CN(C)c1ccc(C2CC(c3ccccc3)=NN2C(=O)c2ccc(F)cc2)cc1 (stereo not drawn) | 0.1 | .
CCOC(=O)c1c(NC(=O)CSc2nnc(CNC(=O)c3ccco3)n2-c2ccccc2OC)sc2c1CCCC2 | -0.68 | .
Cc1cc(/C=C2\SC(=O)N(Cc3ccc(F)cc3)C2=O)c(C)n1-c1cccnc1 | 0.085 | .
CC(C)c1ccc(N2C(=O)CSCC2(C(=O)NC2CCCCC2)c2ccc(Cl)cc2)cc1 (stereo not drawn) | 0.715 | -3
COc1cc2c(cc1OC)C(C)N(C=C(C#N)C#N)CC2 (stereo not drawn) | 0.365 | -0.15
CN(CCc1ccccn1)C(=S)NC(=O)c1ccco1 | . | -1.65
COc1cc2nc(/C=C/c3ccccc3F)n(-c3ccccc3OC)c(=O)c2cc1OC | -0.365 | .
CCOC(CNC(=O)c1ccc2c(c1)nc(C)n2-c1ccc(Br)cc1)OCC | 0.16 | .
COc1ccc(-n2nc(C(=O)NCC(=O)NC3CCCC(C)C3C)c3ccccc3c2=O)c(OC)c1 (stereo not drawn) | -0.095 | -0.15
COc1ccccc1/C=C1\Cc2ccccc2C1=O | -1.03 | 0.7
CCOC(=O)c1nn(-c2ccccc2)c(=O)c2c(N)scc12 | -0.3 | 0.6
O=C(Cc1ccccc1)Sc1ccccc1C(=O)O | 0.02 | 0.75
Cc1ccccc1N1CC(O)(c2ccccc2)[N+]2=C1CCCC2 (stereo not drawn) | 0.825 | .
O=C(C=C1SCCS1)C1CC1c1ccccc1 (stereo not drawn) | . | 1.8
CCN(CC)C(=O)CSc1nc2c(sc(=S)n2-c2ccccc2)c(=O)[nH]1 | 0.27 | .
Cc1cc(Cl)cc(C)c1OCC1COS(=O)O1 (stereo not drawn) | . | 0.15
CC(C)(C)NC(=O)CCN1C(=O)/C(=C\c2ccco2)SC1=S | . | -0.05
CCN1CCN(c2nc(-c3cccc(Cl)c3)c3c(n2)-c2ccccc2OC3)CC1 | 0.265 | -0.05
COc1ccc(CN(Cc2cc3cccc(C)c3n3nnnc23)C(=O)N2CCOCC2)cc1 | . | 0.65

Additional results follow.
SMILES | Ba CapD inh | AID504770
COc1ccc(CC(=O)N2N=C(C)CC2(O)c2ccc(Cl)cc2)cc1 (stereo not drawn) | 0.865 | .
Cc1ccc(N2CSCC2=O)cc1 | -0.025 | 0.65
COC(=O)CSc1cc(=O)n(-c2ccc(OC)cc2)nc1C(=O)OC | -0.025 | .
Cc1noc2c1C(c1cccnc1)C1=C(CCCC1=O)N2 (stereo not drawn) | . | -1.05
COc1cc(-c2[nH]nc3c2C(c2cccc(OC(=O)c4ccco4)c2)C(C#N)=C(N)O3)cc(OC)c1OC (stereo not drawn) | 0.185 | .
CN1C(=O)C(=Cc2cccc(OCCOc3ccc([N+](=O)[O-])cc3)c2)C(=O)N(C)C1=O | 0.645 | .
O=C(C1CCN(c2nc3ccccc3n3cccc23)CC1)N1CCN(c2ccccc2)CC1 | 1.75 | -0.45
O=CN1C(OC(=O)c2ccccc2)C(OC(=O)c2ccccc2)N(C=O)C(OC(=O)c2ccccc2)C1OC(=O)c1ccccc1 (stereo not drawn) | 0.015 | .
COc1ccc(-c2n[nH]c(=S)n2-c2cccc(OC)c2)cc1 | -0.37 | .
O=C(O)CCS(=O)(=O)c1ccc(-c2ccccc2)cc1 | . | -0.4
Cc1ccc(NC(=O)CSc2nc3ccccc3c(=O)n2NS(=O)(=O)c2ccc(C)cc2)cc1 | -0.585 | .
CCOC(CCNC(=O)c1ccc2c(=O)n(Cc3ccc4c(c3)OCO4)c(=S)[nH]c2c1)OCC | 0.585 | .
COc1ccc(Oc2ccc([N+](=O)[O-])cc2C(=O)NCC(=O)O)cc1 | -0.28 | .
COc1ccc(-n2c(=S)[nH]c3cc(C(=O)NCCSCc4ccccc4)ccc3c2=O)cc1 | -0.105 | .
CN(/C=C/C=[N+](C)c1ccccc1)c1ccccc1 | -3.77 | -0.3
S=C(Nc1ccccc1)N1CCCCCC1 | 0.245 | -0.3
CCn1c(N)c(C(=O)c2cccc(S(=O)(=O)N(C)C3CCCCC3)c2)c(=O)[nH]c1=O | . | -0.1
CC1=CC(C)(C)N(Cc2ccccc2)c2cc(C)ccc21 | 21.2 | 1.6
CCOC(=O)NC(=S)N1CCN(Cc2cccc(Cl)n2)CC1 | -0.24 | .
C=CCN(CC=C)S(=O)(=O)c1ccc(C(=O)N2CCCC2)cc1 | -0.405 | 0.8
CCSc1nnc(CNC(=O)c2cccc(OC)c2)n1-c1ccc(F)cc1 | -0.27 | -0.45
N#CCCN(CCOC(=O)N1CCN(C(c2ccccc2)c2ccc(Cl)cc2)CC1)c1ccccc1 (stereo not drawn) | -0.03 | .
O=C(CN1CCc2ccccc2C1)NCc1ccc(F)cc1 | . | -0.5
O=c1c(Cc2ccc(Cl)cc2Cl)c(O)ccn1Cc1ccncc1 | -1.07 | .
CC1CN(S(=O)(=O)c2ccc(C(=O)NC3=NCCS3)cc2)CC(C)O1 (stereo not drawn) | . | -0.45
CC(=O)N1CSCC1C(=O)O (stereo not drawn) | -0.41 | -1.05
OC(CN(Cc1ccccc1)Cc1ccccc1)Cn1c2ccccc2c2ccccc21 (stereo not drawn) | 12.9 | 0.8
Cc1ccc2c(c1)NCC(C(=O)NC1CCCCC1)O2 (stereo not drawn) | . | -0.5
CCn1c2c(c(=O)[nH]c1=O)C(c1ccc(OC)cc1)C1=C(N2)c2ccccc2C1=O (stereo not drawn) | -1.29 | 3.6
O=C1N=C(c2cccc(O)c2)c2ccccc2Nc2ccccc21 | -0.48 | 1.5
Cc1ccccc1NC(=O)/C(C#N)=C(\Nc1ccccc1)SCc1ccccc1F | 0.015 | .

Entries from the list above with fluorine (13):
SMILES | Ba CapD inh | AID504770
Cc1nnc(N2C(=O)C(O)=C(C(=O)c3cccs3)C2c2ccccc2F)s1 (stereo not drawn) | -0.935 | 0.2
CCOC(=O)C1=C(C)NC2=C(C(=O)c3ccccc32)C1c1ccccc1OCc1cccc(F)c1 (stereo not drawn) | 0.08 | .
CCOC(=O)c1nn(-c2ccc(F)cc2)c(=O)c2c(NC(=O)c3cc(OC)c(OC)c(OC)c3)scc12 | -0.305 | 0.9
COc1ccccc1CNC(=O)c1nnc(Cc2ccc(F)cc2)o1 | -0.79 | -0.8
O=C(c1cccc(COCC(F)(F)C(F)F)c1)N1CCN(c2ccccc2)CC1 | 0.34 | -0.75
O=C(CSc1ccc(F)cc1)N1CCCC1 | 0.68 | -0.2
Fc1ccc(Oc2cc(N3CCOCC3)nc(-c3ccccc3)n2)c(F)c1 | 1.09 | .
CN(C)c1ccc(C2CC(c3ccccc3)=NN2C(=O)c2ccc(F)cc2)cc1 (stereo not drawn) | 0.1 | .
Cc1cc(/C=C2\SC(=O)N(Cc3ccc(F)cc3)C2=O)c(C)n1-c1cccnc1 | 0.085 | .
COc1cc2nc(/C=C/c3ccccc3F)n(-c3ccccc3OC)c(=O)c2cc1OC | -0.365 | .
CCSc1nnc(CNC(=O)c2cccc(OC)c2)n1-c1ccc(F)cc1 | -0.27 | -0.45
O=C(CN1CCc2ccccc2C1)NCc1ccc(F)cc1 | . | -0.5
Cc1ccccc1NC(=O)/C(C#N)=C(\Nc1ccccc1)SCc1ccccc1F | 0.015 | .
